From PubChem
Tg IFNy HTS – T. gondii growth inhibition with IFN-gamma, primary screen, cell-based. Toxoplasma gondii growth in IFN-gamma-treated host cells; active compounds read low; reference of the scale not given here. activity change, negative = inhibition, %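 (about 20 µM by stock and volumes)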. 69,000 tested, 3.8% active;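 active = below -70%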;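 also: host cells are HeLa cells infected with Toxoplasma gondii; parasite growth read as luciferase light; one replicate is shown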
Active calls of the source: *; i = inactive; & = joins results of further samples. Only part of the results is shown (hit frequency here may not be typical).

SMILES	Tg IFNy HTS
CCCNC(=O)N1CC2(CN(C(=O)c3cnccn3)C2)c2c([nH]c3cc(OC)ccc23)[C@@H]1CO	95
Cc1[nH]ncc1C(=O)N1CCC2(CC1)COc1ccccc1S(=O)(=O)N(CC(C)C)C2	-48
Cc1ccc(CN2CCN(Cc3ccccc3Cn3cccn3)CC2=O)cc1	6
Cc1[nH]c2ccccc2c1C(=O)C(=O)NCc1ccco1	40
CCCn1ncc(NC(=O)c2cccc(CN3CC=CCC3)c2)n1	-36
Cc1nn(C(=O)c2ccc(Cl)cc2)c(C)c1Sc1ccc(C(F)(F)F)cn1	56
O=C(CC1COCCN1)NCCCn1nnc2ccccc21 (stereo unspecified)	-49
CN1CCN(C(=O)C[C@H]2CC[C@@H]3[C@@H](COc4ccc(NC(=O)c5cccs5)cc4C(=O)N3C)O2)CC1	0
O=C(O)C1CSC(c2ccc3c(c2)OCO3)N1 (stereo unspecified)	20
C1=C(N2CCC(Cc3ccccc3)CC2)Cc2ccccc21	64
O=C(CC1Nc2c3ccccc3nc(=S)n2C1=O)NCCC1=CCCCC1 (stereo unspecified)	-15
Cc1ccc(Cl)cc1NC(=O)Cn1ncc2c(N3CCN(c4ccccc4)CC3)ncnc21	31
O=C(COc1ccc(C(=O)c2ccccc2)cc1)NC1CCN(Cc2ccccc2)CC1	26
CC1CCN(c2ncnc3c2cnn3CC(=O)NCc2cccnc2)CC1	167
CCOCc1nn(C)c2c1CN(C(=O)c1ccc[nH]1)CC2	-7
Cc1nc(C)n(C(C)CNC(=O)Cn2ccc3ccc(F)cc32)n1 (stereo unspecified)	14
COC(=O)CN1C(=O)N(CCc2ccccc2)C2(CCN(Cc3ccc4c(c3)OCCO4)CC2)C1=O	-9
COc1cc(N2CC[C@]3(CCC[C@H](CNC(=O)N(C)C)O3)C2)ncn1	-27
COC(=O)[C@H]1CN(C(=O)CCn2nc(C)cc2C)C[C@@H]1c1ccccc1F	4
CS(=O)(=O)Oc1ccc2c(NC(N)=O)c(C(=O)c3ccc(Cl)cc3Cl)oc2c1	-29&-7
Cc1cc(-c2ccccc2)c2c(C)c(C)sc2n1	-11
Cc1cc(C)nc(Nc2cc(C3CN(c4ncccn4)C3)nc(C)n2)n1	-32
CC(c1cccc(-c2nc3ccccc3n2CCO)c1)N1CCCC1 (stereo unspecified)	-2
COCCNC(=O)c1cc2c(c(-c3cccc(-c4cccc(OC)c4)c3)n1)[C@@H](CCO)N(S(=O)C(C)(C)C)C2 (stereo partly specified)	-52
COC1COC2(CCN(c3ccc(C)nn3)CC2)C1 (stereo unspecified)	-21
SMILES	Tg IFNy HTS
C[C@@H]1CCCCO[C@@H](CN(C)C(=O)c2ccncc2)[C@H](C)CN([C@H](C)CO)C(=O)c2cc(NS(=O)(=O)c3cccs3)ccc2O1	-20
COCCN1Cc2ccnn2CC(C(=O)Nc2nc(C)cs2)C1 (stereo unspecified)	4
Cc1ccc(-c2nc(CN3CCN(C(=O)Nc4ccc(C)c(C)c4)CC3)c(C)o2)cc1	0
CCOc1ccccc1-c1nccn1CCn1cccn1	2
CCC(=O)c1ccc(SC(=O)N(C)C)cc1O	-3
CC(=O)NCC1CCCN(Cc2ccc(C(=O)Nc3cnn(C)c3)cc2)C1 (stereo unspecified)	6
CS(=O)(=O)CS(=O)(=O)Nc1cc(Cl)cc(Cl)c1	84
COc1cccc(CC(=O)N2C[C@H]3C[C@@H](Cc4nc(C)no4)O[C@@H]3C2)c1	20
CCc1ccc(S(=O)(=O)N2CCC3(CC2)Nc2ccc(C)c(C)c2-n2cccc23)cc1	17
CCn1nc(C(C)C)cc1C(=O)N1CCC(O)(CN(C)C)C1 (stereo unspecified)	-46
CS(=O)(=O)N1CCC[C@@]2(C(=O)O)CN(c3ccccn3)C[C@H]2C1	-3
CCCN1C(=O)CCc2cc(NC(=O)c3cc(F)cc(F)c3)ccc21	-52
Cc1noc(C[C@@H]2C[C@@H]3CN(C(=O)Cc4ccccc4F)C[C@H]3O2)n1	-2
Cc1ccc(NC(=O)c2c(O)c3cc(F)cc4c3n(c2=O)C(C)CC4)nc1 (stereo unspecified)	4
CCN1C(=O)CCC12CCCN(C(=O)c1ccc[nH]1)CC2 (stereo unspecified)	-3
Cc1nc(-c2ccc(NC(=O)Cc3ccc(-n4nnnc4C)cc3)cc2)cs1	47
Cc1ccc2c(c1)C(NC(=O)CN(C)C1CCS(=O)(=O)C1)CC1(CCOCC1)O2 (stereo unspecified)	-8
C[C@@H]1CN([C@H](C)CO)C(=O)CCCn2nncc2CO[C@H]1CN(C)Cc1ccc2c(c1)OCCN2C	115
COc1ccc(CNC(=O)CC2N=C3c4ccccc4N=C(SCc4cc(=O)n5ccccc5n4)N3C2=O)cc1 (stereo unspecified)	11
COc1ccc2c3c(n(C)c2c1)[C@H](CO)N(C(=O)Nc1c(C)noc1C)CC31CN(CC2CC2)C1	174
Cc1noc(C)c1S(=O)(=O)N(C)C[C@@H]1OCc2cnnn2CCCC(=O)N([C@H](C)CO)C[C@@H]1C	-25
O=C1CC2(CCN(C(=O)CCSCc3ccc(F)cc3)CC2)CN1	6
Cc1nc2c(c(=O)n1C)CCN(C(=O)C1CCOC(C)(C)C1)CC2 (stereo unspecified)	9
COc1ccc(-c2nnc(-c3nc(NCc4cccc(OC)c4)c4ccccc4n3)o2)cc1	-39
COc1ccc(OC)c(NC(=O)c2nnn(Cc3nc(-c4ccc(Cl)cc4)oc3C)c2C)c1	193
SMILES	Tg IFNy HTS
COCC(=O)N1CCC2O[C@@H](COCc3ccncc3)CCC21 (stereo partly specified)	4
Oc1ccc(-c2cccc(-n3cnnc3)c2)cc1	4
CC1CCN(S(=O)(=O)c2ccc3c(c2)CCC(=O)N3CC(=O)NC2CCCCC2)CC1	-16
O[C@@H]1CN(Cc2ccc3nonc3c2)CC[C@H]1c1ccc2c(c1)OCO2	8
Cc1ccc(NC(=O)N2CCN(Cc3nc(-c4ccccc4C)oc3C)CC2)cc1C	0
Cc1noc([C@H]2CNC(=O)[C@H]3CCN(C(C)C)CC[C@H]32)n1	10
COc1ccc(NC(=O)c2nnn(Cc3nc(-c4ccccc4OC)oc3C)c2C)cc1OC	-2
CN1CCCn2nc(C(=O)NCCN3CCC(c4ccccc4)C3)cc2C1 (stereo unspecified)	-32
Cc1nn(C(C)C)c(C)c1-c1c(-c2ccccc2)ncn1Cc1cccnc1	12
CN1c2ccc(-c3ccccc3)cc2[C@H]2[C@H](CCN2C(=O)NC2CCCCC2)[C@@H]1CO	-64
CCN1C(=O)N(C2Cc3ccccc3C2)C(=O)C12CCN(C/C=C/c1ccc(OC)cc1)CC2	-11
Cc1cccc(-c2nc(C)c(CCNS(=O)(=O)c3ccc(Br)cc3)s2)c1	i
CCN1CCC2(CC1)OC(=O)C(C)=C2C(=O)NCCCN1CCN(c2ccc(OC)cc2)CC1	60
CCOC(=O)c1nn(Cc2ccccc2)c2c1CN(Cc1cccc3ncccc13)CC2	-14
C[C@H](CO)N1C[C@H](C)[C@H](CN(C)CC2CCCCC2)OCCCC[C@H](C)Oc2ccc(NC(=O)Nc3ccc(C(F)(F)F)cc3)cc2C1=O	80
O=C(O)CCc1cc(C(=O)c2ccc(OC3CCCC3)cc2O)ccc1OCc1ccc2c(=O)[nH]oc2c1	18
O=C(Nc1cnn(Cc2ccccc2F)c1)c1ccc(N2CCCCC2)cc1	-95*
O=C([C@@H]1[C@@H](CO)[C@@H]2Cn3c(cccc3=O)[C@@H]2N1Cc1cocn1)N1CCC(Cc2ccccc2)CC1	1
CCn1cnc(-c2nc(C(=O)Nc3cccc(F)c3)c3ccccn23)c1	20
CCc1cc(C2CCCN2C(=O)c2cc(C(F)(F)F)nn2C)on1 (stereo unspecified)	0
COc1ccc(S(=O)(=O)N(C(C)=O)c2ccccc2/C=C/c2cc[n+]([O-])cc2)cc1	-49
NC(=O)N1Cc2nccn2CC(Cn2cccn2)C1 (stereo unspecified)	81
CC(=O)Nc1ccc(CNC(=O)CN2CCC[C@H]2CN2CCCC2)cc1	-4
CCOc1ccccc1NC(=O)COc1nc(CC)nc2ccccc12	11
CC(C)CN1CCCC(CNC(=O)c2cc(=O)c3ccccc3o2)C1 (stereo unspecified)	3
SMILES	Tg IFNy HTS
COc1cc(NCc2ccccc2CN2CCCC2=O)ncn1	-7
COC(=O)c1ccc(-c2nc(CN3CCN(Cc4ccc(OC)cc4)C(=O)C3)c(C)o2)cc1	6
c1cnc(N2CC[C@@H](OCC3CC3)[C@@H]2Cc2ccncc2)nc1	76
O=C(C[C@H]1CC[C@H](NC(=O)c2ccc(F)cc2)[C@@H](CO)O1)NCCc1ccccc1	-19
CC(C)NC(=O)N(C)C[C@@H]1Oc2ccc(NC(=O)Cc3ccccc3)cc2CC(=O)N([C@H](C)CO)C[C@@H]1C	-24
C[C@H](NC(=O)[C@H]1[C@H](CO)[C@H]2Cn3c(ccc(-c4ccccc4)c3=O)[C@H]2N1C)c1ccccc1	-7
CSc1ccc(CNC(=O)Cn2c(=O)cc(-c3nc(C4CC4)no3)c3ccccc32)cc1	-12
O=S(=O)(c1ccc(C2CCCCC2)cc1)N1CCC2(CC1)Nc1ccccc1-n1cccc12	36
COc1ccc([C@H]2CC=CC[C@H](C)Oc3ccccc3C(=O)N(C)[C@@H](C(C)C)C(=O)N2)c(OC)c1 (mixture of isomers)	-11
CCOCCCNC(=O)c1nc(Nc2ccc(F)cc2)c2ccccc2n1	9
COc1cccc2c1OCCCN(C(=O)c1cc3n(n1)CCCN(C)C3)C2	1
CCOc1ccc2nc(Nc3ccc(F)cc3)c(C#N)cc2c1	-59
Cc1cccc(N2C(=O)c3cccc4c(N5CCNCC5)ccc(c34)C2=O)c1	0
CN(CC1CCCNC1)C(=O)c1ccc(CSc2ccccn2)cc1 (stereo unspecified)	3
O=C(CCNCC1(c2cccc(F)c2)CCOCC1)Nc1cccnc1	3
COCCNC(=O)c1nc(Nc2ccc(C)cc2)c2ccccc2n1	-56
CC(C)CCNC(=O)c1nc(Nc2ccc(F)cc2)c2ccccc2n1	-24
O=C(Nc1ccc(F)cc1)c1c(O)c2ccccc2n(-c2ccccc2)c1=O	408
O=C(NC1CCCCC1)N1CC2(C1)[C@H](c1ccccc1)[C@@H](CO)N2S(=O)(=O)Cc1ccccc1	-37
C[C@@H]1CCCCO[C@@H](CN(C)C(=O)Nc2ccccc2)[C@H](C)CN([C@H](C)CO)C(=O)c2cc(NC(=O)Nc3ccccc3)ccc2O1	170
CC(C)NC(=O)N(C)C[C@@H]1Oc2ccc(NC(=O)c3ccncc3)cc2C(=O)N([C@@H](C)CO)C[C@@H]1C	-2
CO[C@@H](CN(C)S(=O)(=O)c1ccc(C)cc1)[C@H](C)CN([C@@H](C)CO)S(=O)(=O)c1cccc(Cl)c1	49
CCOC(=O)c1nn(Cc2ccccc2)c2c1CN(Cc1coc3ccc(C)cc3c1=O)CC2	-17
OCC1OC(n2cnc3c(NC4CCCC4)ncnc32)C(O)C1O (stereo unspecified)	9
C[C@H](CO)N1C[C@H](C)[C@H](CN(C)S(=O)(=O)c2ccccc2C#N)OCc2ccccc2-c2c(n(C)c3ccccc23)C1=O	-47

Fetched by compound from the list above, three records:
SMILES	Tg IFNy HTS
O=C(Nc1ccc(F)cc1)c1c(O)c2ccccc2n(-c2ccccc2)c1=O	408
CC(C)NC(=O)N(C)C[C@@H]1Oc2ccc(NC(=O)Cc3ccccc3)cc2CC(=O)N([C@H](C)CO)C[C@@H]1C	-24
CCOC(=O)c1nn(Cc2ccccc2)c2c1CN(Cc1coc3ccc(C)cc3c1=O)CC2	-17

Two neighbouring records from above, quoted:
SMILES	Tg IFNy HTS
CCOc1ccc2nc(Nc3ccc(F)cc3)c(C#N)cc2c1	-59
Cc1cccc(N2C(=O)c3cccc4c(N5CCNCC5)ccc(c34)C2=O)c1	0

Next entries.
SMILES	Tg IFNy HTS
CN1CC2(CCCN(C(=O)c3[nH]cnc3-c3ccccc3)CC2)OC1=O (stereo unspecified)	12
OCC1(CCOc2ccccc2)CCCN(c2nnnn2-c2ccccc2)C1 (stereo unspecified)	-6
C[C@@H]1CN([C@@H](C)CO)C(=O)c2cc(NC(=O)Nc3ccc4c(c3)OCO4)ccc2O[C@@H](C)CCCCO[C@@H]1CN(C)S(=O)(=O)c1ccccc1	i
CC(C)OC(=O)C(CC(=O)O)NCc1cccnc1 (stereo unspecified)	13
CO[C@@H]1CN(C)C(=O)c2ccc(NC(=O)Nc3cc(F)ccc3F)cc2OC[C@@H](C)N(C(=O)c2ccccn2)C[C@@H]1C	18
c1ccc2c(c1)CCC(N1CCN(Cc3cc4n(n3)CCNC4)CC1)C2 (stereo unspecified)	12
CN(C)S(=O)(=O)N1CCC2(CC1)COC(COc1cccnc1)C2 (stereo unspecified)	-48
Cc1ccc(C)c(-c2[nH]ncc2CN(C)C(C)C(=O)N(C)C)c1 (stereo unspecified)	14
C#CCSc1nc2ccccc2c2nc(-c3ccccc3)nn12	10
CC(C)C(=O)Nc1ncnc2nc[nH]c12	-52
CN(C)C(=O)c1ccc(N2CCC(NCCN3CCCC(c4ccccc4)C3)CC2)cc1 (stereo unspecified)	-1
CN(CCN1CCCCC1=O)Cc1cc2n(n1)CCNC2	3

4 compounds from above, arranged by formula weight, falling:
SMILES	Tg IFNy HTS
CN(C)C(=O)c1ccc(N2CCC(NCCN3CCCC(c4ccccc4)C3)CC2)cc1 (stereo unspecified)	-1
Cc1ccc(C)c(-c2[nH]ncc2CN(C)C(C)C(=O)N(C)C)c1 (stereo unspecified)	14
CC(C)OC(=O)C(CC(=O)O)NCc1cccnc1 (stereo unspecified)	13
CC(C)C(=O)Nc1ncnc2nc[nH]c12	-52

Taken from above.
`Cc1nc(-c2ccc(NC(=O)Cc3ccc(-n4nnnc4C)cc3)cc2)cs1` – Tg IFNy HTS: 47
`Cc1ccc(-c2nc(CN3CCN(C(=O)Nc4ccc(C)c(C)c4)CC3)c(C)o2)cc1` – Tg IFNy HTS: 0
